Cruzain noTriton – cruzain (T. cruzi) inhibition without detergent. P25779. purified cruzain, Z-FR-AMC fluorescence, no detergent. Potency, µM, for inactives: max response, negative = inhibition, usual class: inhibitors. 200,000 tested, 2.3% active. AID 1476;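 also: plate controls were enzyme without inhibitor for no effect and buffer without enzyme for full effect; nearly all actives have a fitted effect of over 40% in size; top concentration of the series not given in the record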
Target sequence (P25779 123-467 limits assumed): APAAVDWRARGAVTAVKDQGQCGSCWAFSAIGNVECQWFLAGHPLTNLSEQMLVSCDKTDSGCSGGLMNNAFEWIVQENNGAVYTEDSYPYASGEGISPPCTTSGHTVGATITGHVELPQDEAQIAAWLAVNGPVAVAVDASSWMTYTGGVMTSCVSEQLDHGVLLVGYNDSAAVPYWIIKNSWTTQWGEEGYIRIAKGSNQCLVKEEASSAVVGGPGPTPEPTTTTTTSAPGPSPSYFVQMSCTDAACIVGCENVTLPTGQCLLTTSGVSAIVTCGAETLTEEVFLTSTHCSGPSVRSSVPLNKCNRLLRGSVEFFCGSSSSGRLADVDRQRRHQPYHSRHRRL
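Purified cruzain at 1.5 nM, pre-incubated 15 min with compound at room temperature in 100 mM sodium acetate pH 5.5, 5 mM DTT, 0.00005% Triton X-100. Reaction started with 2 uM Z-FR-AMC; AMC fluorescence increase over 60 s gives rate.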
Marburg entry inh – blocks Marburg virus binding to or entry into cells; Potency, µM (titrated, usually from 37.8 µM), for the others: at the top dose activity change, negative = inhibition, most hits filed as inhibitors; Marburg virus pseudotyped entry inhibition, cell reporter; control for the full effect not named in the record; about a third of the inactives were read at about 46 µM; 300,000 tested, 1.8% active; active = well fitted inhibition curve with a large enough effect; inconclusive = small, poorly fitted or top-dose-only effect, or effect the other way; inactive = flat fitted curve, though single readings scatter; tested in HEK293 cells; about a fifth of its hits are not listed in these tables; also: % is scaled to controls: 0 for no effect and ±100 for the full control effect; luciferase read-out
2A StopGo – FMDV 2A StopGo reporter, luciferase signal; human cells with a luciferase reporter of 2A StopGo recoding; control for the full effect not named in the record; Potency, µM (titrated, usually from 57.9 µM), without a hit: top-dose signal change, negative = less light; 410,000 tested, 1.2% active; active = well fitted falling curve with a large enough effect; inconclusive = small, poorly fitted or top-dose-only effect; inactive = no such curve, though single readings can be large or run the other way; tested in HEK293T cells; also: % is scaled to controls: 0 for no effect and ±100 for the full control effect; nearly all actives have a fitted effect of over 45% in size; luciferase light after 4 h
Cruzain Triton – inhibitors of Trypanosoma cruzi cruzain with detergent; P25779; purified cruzain, Z-FR-AMC fluorescence, 0.01% Triton; Potency, µM, without a hit: max response, negative = inhibition, usual class: inhibitors; 200,000 tested, 0.43% active; AID 1478;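 also: plate controls were neutral wells for no effect and buffer without enzyme for full effect; nearly all actives have a fitted effect of over 40% in size; top concentration of the series not given in the record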
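Purified cruzain (1.5 nM final) was preincubated with compounds for 15 min at room temperature in 100 mM sodium acetate pH 5.5, 5 mM DTT, 0.01% Triton X-100. Reaction started with 2 uM Z-FR-AMC; AMC fluorescence change over 60 s gave activity.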
Lassa entry inh – blocks Lassa virus binding to or entry into cells. Lassa virus pseudotype entry inhibition, cell reporter; control for the full effect not named in the record. AID 540256. 300,000 tested, 1.2% active. Potency, µM (series often up to 37.9 µM), inactives show at the highest dose activity change, negative = inhibition, usual class: inhibitors; active means well fitted inhibition curve with a large enough effect; inconclusive means small, poorly fitted or top-dose-only effect, or effect the other way; inactive means flat fitted curve, though single readings scatter; tested in HEK293 cells; also: % is scaled to controls: 0 for no effect and ±100 for the full control effect; nearly all actives have a fitted effect of over 50% in size; luciferase read-out
SARS PLpro yeast – blocks SARS-CoV papain-like protease in a yeast assay. S. cerevisiae expressing SARS-CoV PLpro, growth rescue; control for the full effect not named in the record. Potency, µM (doses to about 32.9 µM), inactives show top-dose activity, positive = growth rescue. 330,000 tested, 0.19% active; active means well fitted rising curve with a large enough effect; inconclusive means small, poorly fitted or top-dose-only effect; inactive means no such curve, though single readings can be large or run the other way; also: 0% is about no effect; nearly all actives have a fitted effect of over 55% in size; growth read by luminescence after 48 h
NS1 function inh – influenza NS1 inhibition. AID 2326. S. cerevisiae slowed by influenza A NS1, growth recovery by OD600. 270,000 tested, 0.4% active. Potency, µM (doses to about 46.1 µM), without a hit: at the highest dose activity, positive = more growth; active means well fitted rising curve with a large enough effect; inconclusive means small, poorly fitted or top-dose-only effect; inactive means no such curve, though single readings can be large or run the other way; also: nearly all actives have a fitted effect of over 50% in size
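In this qHTS, NS1 from influenza A is expressed in budding yeast, where it slows growth. Cells are switched from glucose to 2% galactose medium (pH 6.0, -URA), treated with compound, and growth recovery is read at OD600.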
RE007 growth inh – less growth of the S. pombe RE007 Vpr strain; S. pombe RE007 Vpr strain, BacTiter-Glo ATP luminescence, 24 h; control for the full effect not named in the record; Potency, µM (titrated, usually from 92.2 µM), without a hit: at the top dose activity change, negative = less growth; 360,000 tested, 0.21% active; active = well fitted falling curve with a large enough effect; inconclusive = small, poorly fitted or top-dose-only effect; inactive = no such curve, though single readings can be large or run the other way;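 also: % is scaled to controls: 0 for no effect and ±100 for the full control effect; nearly all actives have a fitted effect of over 50% in size; the assay follows cell death caused by Vpr and the record does not say whether a fall means rescue or toxicity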
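Fission yeast strain RE007, carrying one chromosomally integrated HIV-1 vpr copy, was seeded at OD 0.01 in PMG+AL medium with 23 nL pinned compound. After 24 h at 30 °C and 99% humidity, viability was read by BacTiter-Glo luminescence.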
* hit, by the source's call; ? = inconclusive; . = no result given; & = joins results of further samples; [ ] = another dose, or the depositor's remark. Unless noted, calls follow the shape of the dose curve; as a rule, active = well fitted curve in the direction sought with a large enough effect; inconclusive = small, poorly fitted or top-dose-only effect, or another doubt; inactive = no such curve, though single readings can be large; an effect the other way counts as inactive or inconclusive. Potency is read from the fitted curve at half-maximal effect. An unsorted share of the library; about 4.7% have a hit in one of these screens.

SMILES	Cruzain noTriton	Marburg entry inh	2A StopGo	Cruzain Triton	Lassa entry inh	SARS PLpro yeast	NS1 function inh	RE007 growth inh
CCc1ccccc1N(CC)C(=O)c1cn(C)c(=O)c2cc(OC)c(OC)cc12	4%	11%[46.1 µM]	25%	5.8%	17%	3%	-3%	7%
CCS(=O)(=O)n1nc(-c2ccc(Cl)cc2)nc1SC	-9%	-3%	71%[activator]	-5.7%	14%	-1%	0%	-12%
CCCCOCCCNS(=O)(=O)c1ccccc1	-3%	17%	.	1.8%	19%	0%	8%	12%
CCOc1ccc(NC(=O)c2cnn3c2NC(c2ccccc2)=CC3c2cccc(OC)c2OC)cc1 (stereo unspecified)	-2%	.	-13%	-14%	0%[46.1 µM]	.	.	.
CC1CCCCN1S(=O)(=O)c1ccc(S(=O)(=O)NCCc2ccncc2)cc1 (stereo unspecified)	9%	?	.	0.1%	2%	-4%	-9%	1%
Cc1ccc(NC(=O)COc2ccccc2C(=O)Nc2ccccc2)cc1Cl	24%	-1%&-1%	-16%	-5.8%	14%	-1%	14%	32%
Cc1cc2ccccc2nc1SCC(=O)NC1CCCCC1	.	-1%[46.1 µM]	12%	.	13%[46.1 µM]	-1%	-2%	10%
O=C1COc2ccc(S(=O)(=O)CCC(=O)N3CCN(c4cccc(Cl)c4)CC3)cc2N1	.	.	?	.	.	-7%	9%	0%
COc1cccc(-c2c(C(=O)O)cc(O)c3ccc(OC)cc23)c1	.	-19%[46.1 µM]	-2%	.	-13%[46.1 µM]	.	.	-7%
O=C(CN(c1ccc(F)cc1)S(=O)(=O)c1ccc2c(c1)OCCO2)NCc1ccccn1	-3%	-20%	11%	-0.9%	-13%	8%	5%	-7%
CN1CCC(=NNC(=O)c2cc(-c3ccc(Cl)cc3)n[nH]2)CC1	.	19%	13%	.	5%	1%	7%	-18%
CCCCn1cnc2c(cnn2-c2ccc(Cl)cc2)c1=O	5%	0%	-6%	-5.5%	-30%	30%	-1%	0%
CCn1c(SC)nnc1-c1ccc(S(=O)(=O)N2CCCCC2)cc1	.	2%	-23%	.	3%	.	.	4%
COc1ccc(-c2nc(Cn3c(SCc4cccc(Cl)c4)nc4ccncc43)c(C)o2)cc1	-6%	-29%[46.1 µM]	?	-5.8%	-15%[46.1 µM]	.	.	.
COc1cc2c(cc1OC)CN(C(=O)c1ccc(S(=O)(=O)N3CCCCC3)cc1)CC2	17%	3%	-25%	-0.5%	0%	-1%	-22%	-7%
Cc1[nH]c2ccccc2c1C1(O)C(=O)N(Cc2ccccc2Cl)c2ccccc21 (stereo unspecified)	?	-2%[46.1 µM]	?	-12%	?	.	.	.
COc1ccc(CN(C)C(C)C(=O)Nc2ccc(S(=O)(=O)N3CCOCC3)cc2)c(OC)c1 (stereo unspecified)	.	20%[46.1 µM]	-14%	.	24%	0%	.	-9%
O=C(Cc1ccc2cccnc2c1)c1ccc(O)cc1O	-9%	-1%	.	-3.1%	5%	2%	-32%	9%
CCS(=O)(=O)N1CCC2(CC1)OC(=O)C(C)=C2C(=O)NCc1ccccc1C	-2%	.	28%	0.3%	?	.	.	.
CCN1CCCC1CNC(=O)c1ccc2c(c1)NC(=O)/C(=C\c1ccc(OC)c(OC)c1)S2 (stereo unspecified)	.	.	-16%	.	.	3%	4%	-1%
N#CC1=C(SCC(=O)c2ccc(Br)cc2)NC2=C(C(=O)CCC2)C1c1ccco1 (stereo unspecified)	?	8.9µM*	?	-17%	?	1%	?	30%
O=C(Nc1cccc(-c2nnc(-c3ccccc3)o2)c1)C1CCCO1 (stereo unspecified)	4%	?	.	-1.8%	-32%	-14%	-31%	9%
Cc1ccc(S(=O)(=O)N2CCN(C(=O)c3c(-c4ccccc4)noc3C)CC2)cc1	.	-2%[46.1 µM]	-22%	.	.	1%	-3%	-1%
COc1ccccc1NC(=O)CSc1nnnn1C	5%	3%	.	5.7%	6%	6%	4%	0%
O=C(CSc1nc2c([nH]c3ccccc32)c(=O)n1-c1ccccc1)N1CCCCC1	-7%	.	-3%	-0.4%	-1%[46.1 µM]	.	.	.
More entries.
SMILES	Cruzain noTriton	Marburg entry inh	2A StopGo	Cruzain Triton	Lassa entry inh	SARS PLpro yeast	NS1 function inh	RE007 growth inh
COc1cccc(NC(=O)CN(C)C(=O)c2cc(C)on2)c1	.	-3%	-2%	.	29%	-2%	.	-11%
C=CCn1c(=O)n(CCOC)c(=O)c2sc3ccccc3c21	0%	.	-23%	-4.3%	.	-3%	-28%	17%
Cc1ccnc(NS(=O)(=O)c2ccc(NC(=O)C34CC5CC(CC(C5)C3)C4)cc2)n1	-2%	-4%	16%	-1.5%	-2%	-5%	5%	?
COC(=O)C1CC(O)CN1C(=O)Nc1cccc(C(F)(F)F)c1 (stereo unspecified)	.	?	-5%	.	2%[46.1 µM]	1%	3%	15%
CCOC(=O)c1c(NC(=O)CSc2nc3ccccc3o2)sc(C(C)=O)c1C	-18%	?	-21%	-11%	-1%	-5%	14%	21%
O=C(COC(=O)c1ccc(Cl)nc1)Nc1c(Cl)cccc1C(F)(F)F	.	12%	-14%	.	?	-5%	.	36%
COc1ccc(NC(=O)/C=C/C(=O)O)cc1Cl	-7%	13%	.	-3.7%	-2%	-22%	8%	-9%
CCCCOc1ccc(N(CC(=O)NC2CCCCC2)C(=O)CCC(=O)Nc2ccccn2)cc1	.	-7%[46.1 µM]	3%	.	.	.	17%	-6%
CC1Cc2cc(S(=O)(=O)N(C)c3ccc(Br)cc3)ccc2N1C(=O)C1CC1 (stereo unspecified)	-13%	.	?	2.0%	?	.	.	.
CC1=N/C(=C\c2ccc([N+](=O)[O-])cc2)C(=O)N1c1ccc(Br)c(C)c1	7.9µM*	4%	.	-3.3%	9%	8%	1%	-11%
CC(c1ccccn1)N(Cc1ccco1)C(=S)Nc1cccc(F)c1 (stereo unspecified)	.	1%[46.1 µM]	2%	.	22%	0%	.	-6%
Cc1c(/C=N/NC(=O)C(C)(C)Oc2ccc(Cl)cc2)cnn1C	-3%	19%	4%	-1.8%	3%	1%	0%	-1%
Cc1cccc(NC(=O)CSc2nc(-c3ccccc3)cn2-c2ccccc2)c1C	?	.	10%	-1.4%	-26%[46.1 µM]	.	.	.
O=C(COc1ccc(Cl)cc1Cl)NC(=S)N1CCCc2ccccc21	?	16%	.	0.4%	?	13%	10µM*	-1%
CCn1c(=O)c2c(cnn2C)c2ccccc21	18%	-5%	-26%	0.1%	14%	0%	-13%	10%
Cc1ccsc1CN(C)C(=O)c1ccc(Oc2ccccc2)cc1	.	?	27%	.	?	-28%	-36%	3%
CNc1ccc(/C=C/C(=O)c2cccc3ccccc23)cc1[N+](=O)[O-]	?	?	?	-5.9%	?	9%	-1%	2%
Cc1ccc(NC(=O)Cc2cc(C(=O)O)c3ccccc3n2)c(C)c1	.	12µM*	?	.	15µM*	-2%	14%	-5%
O=C(O)C1CCN(c2nc(-c3ccccc3)nc3c2oc2ccccc23)CC1	?	?	-15%	?	-8%	-15%	-82%	-1%
Cc1cccc(C(=O)NCCNC(=O)c2cccc(C)c2)c1	8%	-41%	-13%	0.1%	?	-5%	3%	16%
CCCc1nc2ccccc2n1CCOc1ccccc1	0%	-7%	0%	-5.6%	7%	-2%	-64%	-16%
Cc1ccc(S(=O)(=O)NC(C)C(=O)NC2CCCCCC2)cc1 (stereo unspecified)	-1%	16%	15%	2.1%	-11%	0%	10%	4%
Cn1c2c(c(=O)n(C)c1=O)CN(Cc1ccc(F)cc1)CN2	1%	10%	-5%	1.7%	0%	-7%	-2%	19%
Cc1cccc(NC(=O)CN2C(=O)N/C(=C\c3ccc(-c4cccc(C(=O)O)c4)o3)C2=O)c1	.	4%[46.1 µM]	15%	.	6%[46.1 µM]	1%	-5%	2%
COc1ccc(N2CCN(C(=O)CNC(=O)c3cn(-c4ccccc4OC)c(=O)c4ccccc34)CC2)cc1	.	4%[46.1 µM]	-11%	.	-5%	2%	.	-2%
Next part
SMILES	Cruzain noTriton	Marburg entry inh	2A StopGo	Cruzain Triton	Lassa entry inh	SARS PLpro yeast	NS1 function inh	RE007 growth inh
O=C(CSc1nnc(COc2ccccc2)n1-c1ccccc1)c1ccccc1	-3%	12%	12%	-4.8%	?	-4%	-2%	-2%
O=C1NC(c2cc3c(cc2Cl)OCO3)Oc2ccccc21 (stereo unspecified)	3%	1%	-12%	-6.9%	-3%	-1%	-25%	-4%
O=C(CCCC(=O)Nc1ccccc1Br)N/N=C/c1c(F)cccc1Cl	.	?	-3%	.	3%	-3%	-5%	5%
COCCn1c(CNC(=O)c2cc([N+](=O)[O-])ccc2Cl)nc2cccnc21	-3%	.	3%	-5.1%	-16%[46.1 µM]	.	.	.
O=C(Nc1ccc(O)cc1)/C(=C\c1cccs1)NC(=O)c1ccccc1	-9%	9%	-18%	-9.0%	4%	-19%	4%	-14%
Cc1cc(=O)oc2cc(OCC(=O)Nc3nccs3)ccc12	.	.	0%	.	.	-1%	-2%	-7%
COc1ccc(CNC(=O)C(NC(C)=O)C(C)C)cc1OC (stereo unspecified)	.	1%[46.1 µM]	39%	.	-6%[46.1 µM]	-6%	.	0%
Cc1onc(-c2c(F)cccc2Cl)c1C(=O)OCC(=O)Nc1c(C)n(C)n(-c2ccccc2)c1=O	11%	?	-18%	4.1%	-4%	-1%	?	-4%
COc1ccc(CNC(=O)c2noc3c2CCCC3)cc1	13%	12%	72%[activator]	0.9%	?	11%	-8%	?
COc1ccc2oc(C(=O)OCC(=O)NCCN3C(=O)CSC3=O)c(C)c2c1	-3%	-8%	1%	-2.8%	24%	5%	-2%	4%
O=C(Cn1nnc2ccccc2c1=O)N[C@H](C(=O)O)c1ccccc1	.	.	-6%	.	.	2%	5%	4%
O=C(Nc1ccccn1)c1ccc(COc2ccccc2Cl)o1	-4%	?	22%	-14%	16%	-26%	3%	-10%
O=S(=O)(Nc1cccc2ccccc12)c1cccc2nonc12	.	12%[46.1 µM]	28%	.	2%	-2%	-3%	0%
